GALR2 ag: agonists of human galanin receptor 2 (GALR2) | O43603 | activation, %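 (tested at 5 µM)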 | GALR2-expressing cells, agonist activation read-out | 0.48% of 140,000 active;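 active means above mean plus 3 SD of all compounds, about 5% in these data, not always enough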;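 further: 0% = vehicle buffer wells and 100% = reference agonist at full effect; tested in CHO reporter cells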
Target sequence (O43603 whole entry, looked up): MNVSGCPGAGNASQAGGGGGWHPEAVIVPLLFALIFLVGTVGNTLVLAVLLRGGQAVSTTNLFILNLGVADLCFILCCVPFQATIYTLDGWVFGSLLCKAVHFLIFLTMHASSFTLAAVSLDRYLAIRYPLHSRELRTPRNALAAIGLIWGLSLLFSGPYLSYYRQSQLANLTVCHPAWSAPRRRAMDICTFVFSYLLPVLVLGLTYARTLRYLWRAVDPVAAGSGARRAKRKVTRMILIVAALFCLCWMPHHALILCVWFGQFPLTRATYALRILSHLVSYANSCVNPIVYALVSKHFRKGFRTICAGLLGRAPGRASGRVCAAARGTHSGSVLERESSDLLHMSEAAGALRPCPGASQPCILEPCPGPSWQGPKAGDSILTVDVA
HSV augment: HSV replication enhancement. HSV replication augmentation in cells, fold increase. maximum fold increase. 0.005% of 220,000 active;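 active means peak rise of 1.5-fold or more in the series; tested in PC3 cells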;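 further: first round at 10 µM; read as green reporter fluorescence; hits show the peak of a series up to 25 µM; 1 = signal of infected wells without compound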
PKD1 inh: inhibitors of human PKD1 kinase; Q15139; PKD1 kinase fluorescence polarization assay; inhibition, %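 (about 10 µM by stock and volumes)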; 0.056% of 200,000 active; AID 797;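 active means inhibition of 50% or more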;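 further: controls were vehicle for no effect and a reference inhibitor for full effect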
RGS16-Gao: RGS16-Galphao interaction regulator (human); bead-based flow cytometry RGS16-Galphao binding, fluorescence; actives lie on both sides; AID 1441; binding response (% of control), % at 10 µM; 0.38% of 220,000 active;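 active means below 25% or above 175%, edge rows of some plates excepted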;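 further: Galphao activated by GDP with aluminum fluoride before binding; 100% = wells without compound and 0% = beads without RGS; some results beyond the cut were filed as inactive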
Target sequence (O15492 whole entry, looked up): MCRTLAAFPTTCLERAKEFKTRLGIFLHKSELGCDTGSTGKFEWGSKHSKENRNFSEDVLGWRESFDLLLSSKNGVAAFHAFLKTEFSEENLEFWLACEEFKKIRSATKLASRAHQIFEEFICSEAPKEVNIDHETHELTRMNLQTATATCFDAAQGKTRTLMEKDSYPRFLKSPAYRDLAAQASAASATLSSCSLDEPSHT
Target sequence (P09471 whole entry, looked up): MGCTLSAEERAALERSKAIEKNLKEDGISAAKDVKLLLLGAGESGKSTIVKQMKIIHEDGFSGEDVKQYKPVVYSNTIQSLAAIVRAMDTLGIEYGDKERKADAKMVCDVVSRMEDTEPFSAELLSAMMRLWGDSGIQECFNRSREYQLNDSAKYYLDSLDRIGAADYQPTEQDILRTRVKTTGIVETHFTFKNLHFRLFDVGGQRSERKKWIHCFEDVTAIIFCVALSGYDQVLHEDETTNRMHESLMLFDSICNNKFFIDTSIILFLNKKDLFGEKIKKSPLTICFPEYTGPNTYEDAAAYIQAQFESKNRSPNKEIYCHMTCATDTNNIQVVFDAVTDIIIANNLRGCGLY
Insulin prom inh: TRM-6 insulin promoter activity inhibition. TRM-6 cells (human fetal islet line), insulin promoter-eGFP reporter, imaging; reporter expression induced with tamoxifen. 0.9% of 130,000 active. inhibition, % at 2 µM;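 active means inhibition above the mean plus 3 SD, with well images judged a real hit on visual review, cut at about 60% in these data, passing the limit was not always enough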
Insulin prom inh cell count: also measured in Insulin prom inh; calls as there; normalized cell count, %; measured here: cell count, toxicity; reference of the scale not given here;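 cells exposed to compound for 48 h; stained nuclei by imaging scaled within each plate; lower means fewer cells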
HSV augment primary fold: further read-out of HSV augment, marked with its call; fold increase; compound at 10 µM; measured here: primary screen fold increase 10 uM; tested in PC3 cells;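 GFP signal in the first replicate; 1 = infected wells without compound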
Starred values were filed as active, the others as inactive; i = inactive; · = not tested or not shown.

Sample of the layout, 5 compounds:
SMILES	GALR2 ag	HSV augment	HSV augment primary fold	PKD1 inh	RGS16-Gao	Insulin prom inh	Insulin prom inh cell count
CC(=O)N1CCN(c2ccc(Nc3ncnc4c3oc3ccccc34)cc2)CC1	0.0	i	0.96	1	96	·	·
Cc1cc([N+](=O)[O-])ccc1NC(=O)c1cccc(NC(=O)C(C)C)c1	·	i	0.95	6	97	·	·
Cn1cc(C(=O)c2cccc(Cl)c2Cl)cc1C(=O)O	-1.0	i	0.87	2	106	12	106
O=C(Nc1nccs1)c1cc2sccc2n1Cc1ccc(F)cc1	0.1	i	0.82	-6	117	40	121
CC(C)CC(=O)NC(=S)NCCc1ccccc1	0.1	i	1.1	0	106	-20	44

The whole of this part, repeating the preview:
SMILES	GALR2 ag	HSV augment	HSV augment primary fold	PKD1 inh	RGS16-Gao	Insulin prom inh	Insulin prom inh cell count
CC(=O)N1CCN(c2ccc(Nc3ncnc4c3oc3ccccc34)cc2)CC1	0.0	i	0.96	1	96	·	·
Cc1cc([N+](=O)[O-])ccc1NC(=O)c1cccc(NC(=O)C(C)C)c1	·	i	0.95	6	97	·	·
Cn1cc(C(=O)c2cccc(Cl)c2Cl)cc1C(=O)O	-1.0	i	0.87	2	106	12	106
O=C(Nc1nccs1)c1cc2sccc2n1Cc1ccc(F)cc1	0.1	i	0.82	-6	117	40	121
CC(C)CC(=O)NC(=S)NCCc1ccccc1	0.1	i	1.1	0	106	-20	44
Cn1c(=NC(=O)c2ccccc2[N+](=O)[O-])sc2cc(S(C)(=O)=O)ccc21	0.5	i	0.79	-7	91	4	152
CN(C)/N=C/C=C1\CCC/C(=C\c2ccc(F)c(F)c2)C1=O	·	i	0.69	-10	94	·	·
Cc1ccc(Nc2cc(=O)oc3ccccc23)c(C)c1	-2.5	i	0.78	2	98	22	104
COc1ccc(CNC(=O)COC(=O)c2ccc(OCc3c(C)noc3C)cc2)cc1OC	-1.6	i	0.95	-6	105	·	·
CCN(CC)S(=O)(=O)c1ccc(N2CCOCC2)c(NC(=S)NC(=O)c2ccco2)c1	·	i	0.94	·	90	·	·
O=C(Nc1ccccc1N1CCCC1)c1cccnc1Cl	-1.1	i	0.96	-2	111	38	89
CCCNC(=S)N1CCN(C)CC1	-1.6	i	1.1	-12	186	21	72
Cc1ccc(S(=O)(=O)NC(C(=O)N2CCOCCOCCOCC2)c2ccccc2)cc1 (centres undefined)	·	i	0.98	2	98	·	·
COc1ccccc1-c1cc(C(F)(F)F)nc(N2CCN(c3ccccc3)CC2)n1	-0.6	i	0.9	9	99	-33	110
COc1ccc(Cl)cc1N(CC(=O)N(C)C)S(=O)(=O)c1ccc(C)c([N+](=O)[O-])c1	·	i	1.1	-1	102	-89	140
COCCNC(=S)Nc1ccccc1[N+](=O)[O-]	·	i	1	8	103	·	·
CCOC(=O)c1c(NC(=O)OC)sc2c1CCC2	-2.9	i	1	5	93	31	92
CCNS(=O)(=O)c1ccc(CCC(=O)Nc2ccc(C(=O)OC)cc2)cc1	·	i	0.87	-7	105	·	·
Cc1ccc(N2CCCCn3c2nc2c3c(=O)[nH]c(=O)n2C)cc1	-1.7	i	0.85	-11	97	·	·
Cc1cc2nc(-c3ccc(SCC(=O)N4CCN(C(=O)c5ccco5)CC4)nc3)[nH]c2cc1C	-2.0	i	0.91	-6	97	13	113

Just HSV augment primary fold and RGS16-Gao, for four of the compounds above:
SMILES | HSV augment primary fold | RGS16-Gao
COc1ccc(Cl)cc1N(CC(=O)N(C)C)S(=O)(=O)c1ccc(C)c([N+](=O)[O-])c1 | 1.1 | 102
COCCNC(=S)Nc1ccccc1[N+](=O)[O-] | 1 | 103
CCOC(=O)c1c(NC(=O)OC)sc2c1CCC2 | 1 | 93
CCNS(=O)(=O)c1ccc(CCC(=O)Nc2ccc(C(=O)OC)cc2)cc1 | 0.87 | 105

Continuation:
SMILES	GALR2 ag	HSV augment	HSV augment primary fold	PKD1 inh	RGS16-Gao	Insulin prom inh	Insulin prom inh cell count
O=C(C1CCCN1S(=O)(=O)c1cccc2cccnc12)N1CCn2c1nc1ccccc12 (centres undefined)	-0.6	i	0.86	-14	105	·	·
CC(=O)c1cccc(NC(=O)C2CCN(S(=O)(=O)c3ccc(C)cc3)CC2)c1	-0.2	i	1	-9	·	0	119
CCc1nnc(NC(=O)Nc2ccccc2OC)s1	0.2	i	1.2	5	100	·	·
COC(=O)C1CCN(CC(=O)Nc2cc(Cl)ccc2OC)CC1	·	i	1	0	95	·	·
Cc1ccc(NC(=O)c2ccc(OC(=S)N3CCOCC3)cc2)cc1	-1.4	i	0.88	2	99	·	·
c1ccc(-c2csc(Nc3ncccn3)n2)cc1	3.9	i	0.87	4	105	6	65
COc1cccc(/C=C2\C(=O)C(=O)c3ccccc32)c1	-2.2	i	2.5	-1	96	-178	147
Cc1nnc(SCc2ccccc2)nc1/C=C/NOCc1ccc(Cl)cc1Cl	-1.8	i	1	-1	101	-8	89
COC(=O)CNC(c1ccccc1)c1cc(Cl)ccc1NC(=O)c1cccc(Cl)c1 (centres undefined)	0.1	i	0.98	4	108	·	·
CN(C)S(=O)(=O)c1ccc(C(=O)NCCOc2ccc(F)cc2)cc1	-3.3	i	1	-6	65	7	127
Cc1nnc(NC(=O)CSc2nc(C(C)C)nc3sc(C)c(C)c23)s1	-1.6	i	0.84	-4	105	-20	70
N#Cc1ccc(CSc2nnc3[nH]c(=O)cc(N)n23)cc1	·	i	0.94	-4	99	·	·
NC(=O)c1ccc(N2CCN(c3ccccc3O)CC2)c([N+](=O)[O-])c1	·	i	1	-2	104	20	117
Cc1nc(C(=O)NNC(=O)Nc2ccc(Cl)cc2)cs1	·	i	1	·	108	·	·
O=C(NCCN1CCCCC1)c1ccc2c(c1)OCCO2	-1.2	i	1	1	99	-68	78
COc1ccccc1C(=O)n1nc(-c2cccnc2)nc1NCc1ccccc1	·	i	0.93	0	109	·	·
CC(C)NC(=O)c1sc2nc3c(c(-c4cccs4)c2c1N)CN(C)CC3	-1.1	i	1.2	-2	101	-1	77
CC(=O)Nc1ccc(N(C(=O)CNC(=O)c2ccco2)C(C(=O)NCc2ccco2)c2ccccc2)cc1 (centres undefined)	·	i	0.99	·	106	·	·
O=C(NCc1ccco1)c1cc2nc(C3CC3)cc(C(F)(F)F)n2n1	-0.9	i	0.94	-7	93	-24	114
Cc1sc(-c2ccccn2)nc1OC(=O)c1cccc(Cl)c1Cl	-3.1	i	1.2	-10	103	22	131
Cc1ccc(NC(=O)CN2CCN(CCN=CC3=C(O)CC(c4ccc(C)cc4)CC3=O)CC2)cc1 (centres undefined)	·	i	1.1	2	101	·	·
COc1ccc(OC)c(C2=NOC(C(=O)NCc3cccs3)C2)c1 (centres undefined)	·	i	0.75	-3	104	·	·
CCN1C(=O)N(CC)C2C1N(C(C)=O)C(=O)N2C(C)=O (centres undefined)	0.0	i	0.9	-4	102	-73	135
COc1cc(OC)cc(C(=O)Nc2nnc(-c3cccnc3)o2)c1	·	i	0.89	-5	105	33	88
COc1ccccc1C(=O)Nc1sc2c(c1C(=O)NCc1ccco1)CCCC2	-0.2	i	0.99	-4	99	-6	183
Cc1sc2nc(COC(=O)C(NC(=O)c3ccc(Cl)cc3Cl)C(C)C)[nH]c(=O)c2c1C (centres undefined)	-1.5	i	0.98	3	97	-61	91
Cc1cc(C(F)(F)F)nn1CC(=O)NCc1ccccc1	0.6	i	1	-9	172	4	140
CC(=O)NN1C(=O)c2ccccc2NC1c1ccccn1 (centres undefined)	-0.6	i	0.99	-5	22*	10	66
NNC(=O)COc1ccc(F)cc1	0.5	i	0.96	3	98	·	·
Cc1ccc(CSc2nnc(-c3ccncc3)o2)c(C)c1	·	i	0.95	6	95	-4	151
O=CNC(Cc1ccccc1)C(=O)O (centres undefined)	-0.6	i	0.9	-3	98	7	41
COCCn1c(C)cc(C(=O)CSc2nc3ccccc3c(=O)n2C(C)COC)c1C (centres undefined)	·	i	1.1	-2	95	·	·
Cc1cccc(Oc2cc([N+](=O)[O-])cc3c2C(=O)Nc2ccccc2O3)c1	1.3	i	1.3	-3	71	-93	100
COc1ccc2c(CC(=O)Nc3cccc(S(=O)(=O)N4CCOCC4)c3)coc2c1	-0.8	i	1	2	104	·	·
COc1cc(NC(=O)c2onc(C)c2Cl)c(OC)cc1Cl	-0.1	i	0.97	-5	97	·	·
Cc1cc(C(=O)Nc2ccc3c(c2)OCCO3)c2ccccc2n1	·	i	1.4	-5	98	·	·
Cc1cc(=O)n2c(nc3ccccc32)[nH]1	-1.5	i	0.93	-3	37	-281	64
O=c1nc(NCc2ccccc2Cl)cn[nH]1	-4.6	i	0.89	0	103	71	121
C/C=C/c1ccc(OCCCCOc2c(OC)cccc2OC)c(OC)c1	0.0	i	1	-4	101	-17	98
CCN1CCN(C(c2ccccc2)c2nnnn2Cc2ccccc2)CC1 (centres undefined)	-0.7	i	0.96	-1	103	-87	33
CCC1(c2ccccc2)NC(=O)N(CC#N)C1=O (centres undefined)	·	i	1.1	-8	102	·	·
CCc1ccc(Nc2cc(=O)n(C3CCCCC3)c(=O)[nH]2)cc1	-3.0	i	0.91	-3	101	38	105
Cc1cc(C)c(C)c(S(=O)(=O)NCC(=O)Nc2sc3c(c2C(N)=O)CCCC3)c1C	-1.1	i	0.88	-1	96	-3	94
Cc1cccc(C2N(c3ccc(F)cc3)C(=O)C3CCCN32)c1 (centres undefined)	1.8	i	1	0	·	·	·
CCOC(=O)c1cccc(N2C(=O)C3C(C(=O)NC4CC4)C4(C)C=CC3(O4)C2C(=O)NC(C)(C)C)c1 (centres undefined)	0.8	i	0.96	-7	96	-62	84
COc1ccc(C(=O)Nc2nc(-c3cccs3)c(NC(C)=O)s2)cc1	0.0	i	1.1	-4	106	-88	76
Brc1ccc2c(c1)C(C1=NCCN1)c1ccccc1CS2 (centres undefined)	-1.7	i	0.64	6	110	-285	4
CCn1c(N2CCC(C)CC2)nc2c1c(=O)n(C)c(=O)n2C	-3.0	i	1	-6	105	·	·
CCOC(=O)c1c(C)[nH]c(C(=O)CSc2nnnn2-c2ccc(C)cc2)c1C	-1.1	i	1.2	-3	103	·	·
C=CCN(c1ccccc1C(=O)NCC(=O)OCC)S(=O)(=O)c1ccc(C)cc1	·	i	1.1	·	98	·	·

Sorted by formula weight (lowest first): part of the list above
SMILES	GALR2 ag	HSV augment	HSV augment primary fold	PKD1 inh	RGS16-Gao	Insulin prom inh	Insulin prom inh cell count
CCC1(c2ccccc2)NC(=O)N(CC#N)C1=O (centres undefined)	·	i	1.1	-8	102	·	·
COc1ccc(C(=O)Nc2nc(-c3cccs3)c(NC(C)=O)s2)cc1	0.0	i	1.1	-4	106	-88	76
CCOC(=O)c1c(C)[nH]c(C(=O)CSc2nnnn2-c2ccc(C)cc2)c1C	-1.1	i	1.2	-3	103	·	·

Quoted at random: 3 records from the list, in no set order.
SMILES	GALR2 ag	HSV augment	HSV augment primary fold	PKD1 inh	RGS16-Gao	Insulin prom inh	Insulin prom inh cell count
C=CCN(c1ccccc1C(=O)NCC(=O)OCC)S(=O)(=O)c1ccc(C)cc1	·	i	1.1	·	98	·	·
CCC1(c2ccccc2)NC(=O)N(CC#N)C1=O (centres undefined)	·	i	1.1	-8	102	·	·
CCOC(=O)c1c(C)[nH]c(C(=O)CSc2nnnn2-c2ccc(C)cc2)c1C	-1.1	i	1.2	-3	103	·	·
